# Assay outcomes: PubChem, several laboratories
# Mtb hypoxia inh: Mtb hypoxia fluorescent reporter inhibition | M. tuberculosis hypoxia-regulated fluorescent reporter, fluorescence | AID 1159583 | fluorescence inhibition, % (no concentration beside the values) | 300,000 compounds, 0.1% hits;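 active = 35 to 45% if threefold the growth effect, above 45% if 1.5-fold the growth effect; inactive = the rest, general growth blockers included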;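 note: wells of about 50 µL received 100 nL stock; 0% = vehicle wells and 100% = reference inhibitor wells; whole bacteria with a GFP reporter of the hypoxia response; strong numbers were not always called active; many hits fall short of the cut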
# BJeLR viability: kills HRASV12-expressing BJeLR cells. inhibition, % (test concentration not listed). AID 1554. 300,000 compounds, 0.17% hits. BJeLR (HRASV12) viability, CellTiter-Glo ATP luminescence, 48 h; reference of the scale not given here;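 active = replicate mean above 50%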;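 note: 50 nL library stock added to about 25 µL; numbers are from one replicate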
# PrP 5UTR inh: suppresses PrP 5' UTR mRNA reporter expression; cell-based PrP 5' UTR mRNA reporter, plate reader; inhibition, % (concentration not given with the values); 340,000 compounds, 0.35% hits; AID 488862;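 active = every replicate at 50% or more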;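 note: 0 = median of the neutral control wells; tested in H4 reporter cells; numbers are from one replicate; inactives centre near -14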
# Autofluor counter: compound fluorescence in toxin protease inhibitor counterscreen. fluorescence intensity (no concentration beside the values). compound autofluorescence counterscreen, microsphere flow cytometry; stronger effect = higher value. 360,000 compounds, 3.1% hits;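 active = at least 3 SD above the mean of all compounds, about 16000 in these data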;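 note: 100 nL of 1 mM stock went into each well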
# ugtP null kill: growth inhibition of S. aureus ugtP deletion strain; S. aureus RN4220 ugtP deletion, OD600 growth, 16 h; some inactives read as strong as hits; 330,000 compounds, 0.54% hits; growth inhibition, % (test concentration not listed);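 active = z-score under -3 and OD600 up to 0.15 on both plates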;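 note: plate controls were untreated wells for no effect and antibiotic for full effect; wells of about 80 µL received 100 nL stock; the first replicate is given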
# Sa RN4220 lethal: S. aureus RN4220 growth inhibition; OD600, 16 h; inhibition, % (concentration not given with the values); 330,000 compounds, 0.33% hits;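 active = z-score of -3 or lower and OD600 up to 0.18 on both plates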;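 note: plate controls were untreated cells for no effect and reference antibiotic for full effect; stock transfer was 100 nL into about 80 µL; one replicate is shown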
# Mtb hypoxia inh growth: recorded beside Mtb hypoxia inh, whose call it bears; growth inhibition, %; measured here: M. tuberculosis growth (absorbance);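 0% = vehicle and 100% = reference antibiotic; read after six days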
# * marks the source's active call; other numbers are inactive results; . = not tested or not shown; & = joins results of further samples.
SMILES,Mtb hypoxia inh,Mtb hypoxia inh growth,BJeLR viability,PrP 5UTR inh,Autofluor counter,ugtP null kill,Sa RN4220 lethal
COc1cccc(/C=C2\SC(=S)N(C(C(=O)O)c3ccccc3)C2=O)c1OC (stereo not drawn),-1,-11,-11,-10,4308,17,10
CCc1noc(C)c1C(=O)Nc1ccc(C(F)(F)F)cc1,5,3,-2,-16,5839,-4,-0.3
Nc1nc2c(ncn2C2CCCC2)c(=O)[nH]1,10,8,.,-10,4007,6,2.1
CN(Cc1ccco1)C(=O)C1CCC(=O)N(CCc2cccc(F)c2)C1 (stereo not drawn),-3,-7,6,-5,3885,-4,1.8
COc1cc(C(c2c(C)[nH]n(-c3ccccc3)c2=O)c2c(C)[nH]n(-c3ccccc3)c2=O)cc(OC)c1OC,2,-4,2,3,5754,-9,-2.3
COc1ccc(Nc2nc(N)nc(CSc3nnc(N)s3)n2)cc1,-2,4,8,-25,10778,6,4.6
O=C(Nc1cccc(Cl)c1)c1cccc(N2C(=O)C3CC=CCC3C2=O)c1 (stereo not drawn),2,-12,1,-18,3489,4,0.4
Oc1ccc(NCc2cccc(OCc3ccc(F)cc3)c2)cc1,-9,-6,.,-32,4476,-5,-2.1
CCC(CO)Oc1cc(NCc2ccc(OC)cc2)c2ncn(C(C)C)c2c1 (stereo not drawn),8,9,.,-37,3622,-2,1.4
O=C(NCCCN1CCOCC1)c1ccc2nc(Cc3cccc(Cl)c3)oc2c1,6,5,1,-11,5554,0,0.0
COc1cc(Cl)c(C)cc1NC(=O)CSc1ccccc1,-1,0,1,-3,1968,22,0.2
CC(=O)N1CCN(Cc2nc3cc(Cl)ccc3c(=O)[nH]2)CC1,-10,6,1,30,4348,6,7.9
Cc1nc2sc(C(c3cccc(F)c3)N3CCCC(C)C3)c(O)n2n1 (stereo not drawn),.,.,0,1,5427,1,3.0
CCOC(=O)CSc1nc(N)nc(C)c1Cl,9,-3,2,-33,4495,3,2.5
CSc1ccccc1NC(=O)Cn1c([N+](=O)[O-])cnc1C,13,8,1,31,4351,0,1.4
CC(C)C[C@H](NC(=O)[C@@H]1O[C@H]1C(=O)O)C(=O)NCCCCN=C(N)N,.,.,-3,-12,4407,.,.
COc1ccc(OC)c(NC(=O)C23CCC(C)(C(=O)C2)C3(C)C)c1 (stereo not drawn),.,.,-1,-59,4359,-13,4.4
COc1ccccc1C1=NOC(C)(c2sc(-c3ccc(Cl)cc3)nc2C)C1 (stereo not drawn),-5,-2,-2,-17,4131,7,1.1
COc1ccc(-n2c(-c3ccc(C)cc3)nc3ccccc3c2=O)cc1,-12,2,3,-59,5961,21,3.6
COc1cccc(C2N(Cc3ccccc3)C(=O)C2(F)F)c1OC (stereo not drawn),11,2,1,-20,6157,-3,6.5
CCn1cc(/C=C(\NC(=O)c2ccc(C)cc2)C(=O)NCCN2CCOCC2)c2ccccc21,-15,-3,-7,3,6479,2,2.4
COc1ccc(/C(O)=C2\C(=O)C(=O)N(CCN(C)C)C2c2cccc(OC)c2OC)cc1 (stereo not drawn),.,.,-5,-30,10948,.,.
CCOC(=O)N1CCN(C(=O)C(NC(=O)c2ccc(CC)cc2)C(C)C)CC1 (stereo not drawn),1,-3,-5,-12,6770,1,1.0
Cc1cccnc1NC(=O)CCNC(=O)c1ccccc1Cl,11,2,-2,-18,5373,-1,2.6
O=C(O)COc1ccc(/C=C/c2ccc3cccc([N+](=O)[O-])c3n2)cc1,-2,-1,-5,-18,8954,0,2.5
# Following part:
SMILES,Mtb hypoxia inh,Mtb hypoxia inh growth,BJeLR viability,PrP 5UTR inh,Autofluor counter,ugtP null kill,Sa RN4220 lethal
Cc1ccc(SCC(=O)Nc2ccc(N3CCOCC3)cc2)c(C)c1,9,8,2,-16,4730,5,0.1
Cn1cc([N+](=O)[O-])c(C(=O)N(Cc2ccccc2)Cc2ccccc2)n1,-3,-2,6,-7,2146,-1,7.3
CCOC(=O)c1c(C)[nH]c(C(=O)COC(=O)CSC)c1C,14,5,-4,-15,2599,-1,7.9
CCS(=O)(=O)N1CCC(C(=O)NCc2cccc(OC)c2)CC1,4,9,-5,-20,8384,-3,4.5
COc1cccc(N2CCN(C(=O)CCC(=O)c3ccc(Cl)s3)CC2)c1,4,3,.,3,6454,0,4.5
O=C(CC(O)(c1ccccc1)C(F)(F)C(F)F)c1cccs1 (stereo not drawn),2,12,.,-11,20372*,3,8.1
CCCC1CCCCC=CCCCC(=O)OCCN1C(=O)OC(C)(C)C (stereo not drawn),-8&-2,-7&3,.,.,.,-3&-30,-9.8&1.2
CCn1c(SCC(=O)Nc2cccc(F)c2)nc2c(c1=O)SC(C)C2 (stereo not drawn),8,4,0,-4,6011,12,5.2
Cc1ccc(C(=O)NC(C(=O)Nc2ccccc2)c2ccccc2)cc1 (stereo not drawn),4,2,7,11,3389,1,7.9
CN(CC(=O)NC1CCCCCC1)S(=O)(=O)c1ccc(Br)cc1,-1,-2,3,2,4602,10,2.7
CCOC(=O)c1cccc(N2C(=O)C3C(C(=O)NC4CC4)C4(C)C=CC3(O4)C2C(=O)NC(C)(C)C)c1 (stereo not drawn),-15,-2,0,-8,4627,-1,-1.0
COc1ccc(C(=O)Nc2nc(-c3cccs3)c(NC(C)=O)s2)cc1,-3,-1,16,-22,3237,-2,-0.6
Cc1c(Cc2ccccc2)c(=O)oc2cc(OCC(=O)NC(Cc3ccc(Cl)cc3)C(=O)O)ccc12 (stereo not drawn),.,.,3,-13,4187,-7,4.4
Brc1ccc2c(c1)C(C1=NCCN1)c1ccccc1CS2 (stereo not drawn),2,-4,29,-38,10998,7,0.8
COc1ccc(OC)c2sc(NC(=O)c3cccc(N4C(=O)CCC4=O)c3)nc12,5,6,-9,-17,4869,-5,2.7
COc1ccccc1NC(=O)c1cc(-c2cc(OC)c(OC)c(OC)c2)nc2ccccc12,2,11,3,-10,4102,-6,-3.2
Cc1cc(=O)n2c(nc3ccccc32)[nH]1,7,4,2,-6,24029*,-1,-1.0
NC(=S)/N=C/c1c(O)[nH]c(=O)[nH]c1=O,.,.,8,-10,4662,.,.
C/C=C/c1ccc(OCCCCOc2c(OC)cccc2OC)c(OC)c1,11,1,-5,-14,2047,27,7.6
O=c1nc(NCc2ccccc2Cl)cn[nH]1,3,-1,7,-25,7310,8,1.3
CC(=O)N1CCN(c2ccc(NCc3cccc4ccccc34)cc2)CC1,.,.,-2,-5,3226,.,.
CCN1CCN(C(c2ccccc2)c2nnnn2Cc2ccccc2)CC1 (stereo not drawn),-1,10,-4,-4,3910,-8,-2.9
CCC1(c2ccccc2)NC(=O)N(CC#N)C1=O (stereo not drawn),-7,5,1,-18,4592,4,6.4
CCc1ccc(Nc2cc(=O)n(C3CCCCC3)c(=O)[nH]2)cc1,.,.,16,-43,2864,2,7.7
Cc1cc(C)c(C)c(S(=O)(=O)NCC(=O)Nc2sc3c(c2C(N)=O)CCCC3)c1C,.,.,11,3,2204,-11,13
# Next structures.
SMILES,Mtb hypoxia inh,Mtb hypoxia inh growth,BJeLR viability,PrP 5UTR inh,Autofluor counter,ugtP null kill,Sa RN4220 lethal
O=C(Nc1ccccc1OC(F)F)c1ccc(S(=O)(=O)N2CCOCC2)cc1,2,-19,3,-18,4613,4,1.5
CCCNC(=S)N1CCC(NC(=O)c2ccc(C)cc2)CC1,9,6,-2,-22,4071,7,-0.4
Cc1ccc(Nc2nc(N=CN(C)C)n[nH]2)cc1C,10,3,.,.,.,-1,0.9
Cc1cccc(C2N(c3ccc(F)cc3)C(=O)C3CCCN32)c1 (stereo not drawn),.,.,-4,0,7637,-1,0.4
COc1ccc(C(=O)NCc2nnc(SCC(=O)NC3=NCCS3)n2C)cc1,2,-1,-2,-13,3566,13,1.0
CC(C)c1ccccc1NC(=O)COc1ccc(C(=O)NCCc2ccccc2)cc1,4,0,-2,-13,2081,4,6.0
NS(=O)(=O)c1ccc(-c2ccc(/C=C3\SC(=O)NC3=O)o2)cc1,.,.,-7,1,2862,.,.
CC(C)NC(=S)N/N=C/c1cc(Br)ccc1O,.,.,-2,-16,2364,.,.
COc1cccc(-n2c(COc3ccccc3C)nnc2SCC(=O)O)c1,1,-2,-5,-6,9168,2,5.7
O=C(CCc1ccccc1)NNC(=O)C12CC3CC(CC(C3)C1)C2,4,-6,8,-1,8027,10,2.1
O=C(Nc1nc(-c2ccco2)c(-c2ccco2)s1)C1CC(=O)N(c2ccc3c(c2)OCCO3)C1 (stereo not drawn),.,.,-15,-22,2423,-6,-4.9
C=CCNc1nc(N)c([N+](=O)[O-])c(Nc2ccccc2OC)n1,9,8,-7,22,3228,5,6.7
CCNC(=O)C(C)Oc1ccc(Cl)cc1Cl (stereo not drawn),6,0,2,-27,3857,3,5.4
Cc1ccc(C(=O)N2CCC(n3nccc3NC(=O)c3ccccc3C)CC2)cn1,0,5,1,-3,5781,4,-0.5
COc1cccc(C2CNC3(CCCC(C)C3)c3[nH]c4ccccc4c32)c1OC (stereo not drawn),0,12,9,-11,3830,-26,-6.5
CCCNC(=S)Nc1cc2oc3ccccc3c2cc1OC,-7,-4,-5,-10,5478,-2,-3.1
CCn1c(N2CCC(C)CC2)nc2c1c(=O)n(C)c(=O)n2C,.,.,-5,-13,5525,6,4.4
COC(=O)c1ccc(COc2ccc(CNCc3ccc(Cl)cc3)cc2)cc1,-2,3,-5,-25,4750,3,4.4
CCOC(=O)c1c(C)[nH]c(C(=O)CSc2nnnn2-c2ccc(C)cc2)c1C,5,2,-11,.,11144,-12,1.2
C=CCN(c1ccccc1C(=O)NCC(=O)OCC)S(=O)(=O)c1ccc(C)cc1,11,11,0,-13,5960,4,2.7
CCCC(C)C(=O)Nc1cccc(NC(C)=O)c1 (stereo not drawn),4,11,-4,-8,8548,3,1.8
Cc1ccc(NC(=O)N2CCCC2C(=O)NCc2ccccc2Cl)cc1 (stereo not drawn),12,9,-2,-20,3627,-3,3.1
Cc1cc(C)cc(Oc2nn[nH]n2)c1,5,2,-9,-39,24301*,-1,3.8
CCN(CC)C(=O)COc1coc(CN2CCN(c3ccccc3F)CC2)cc1=O,3,7,2,-9,5969,-2,2.1
CC(=O)c1nn(-c2ccc(C(F)(F)F)cc2)c(=O)[nH]c1=O,-9,-5,0,.,3857,3,3.4

# Rewritten with bars between the fields: 3 of the compounds above.
molecule | Mtb hypoxia inh | Mtb hypoxia inh growth | BJeLR viability | PrP 5UTR inh | Autofluor counter | ugtP null kill | Sa RN4220 lethal
NS(=O)(=O)c1ccc(-c2ccc(/C=C3\SC(=O)NC3=O)o2)cc1 | . | . | -7 | 1 | 2862 | . | .
COc1cccc(C2CNC3(CCCC(C)C3)c3[nH]c4ccccc4c32)c1OC (stereo not drawn) | 0 | 12 | 9 | -11 | 3830 | -26 | -6.5
O=C(Nc1ccccc1OC(F)F)c1ccc(S(=O)(=O)N2CCOCC2)cc1 | 2 | -19 | 3 | -18 | 4613 | 4 | 1.5

# (continued)
SMILES,Mtb hypoxia inh,Mtb hypoxia inh growth,BJeLR viability,PrP 5UTR inh,Autofluor counter,ugtP null kill,Sa RN4220 lethal
CCOc1ncccc1C(=O)NNC(=O)c1cccc(S(=O)(=O)Nc2ccc(OC)cc2)c1,1,9,4,-13,5366,1,-1.4
CC(=O)NC(Cc1c[nH]c2ccccc12)C(=O)N1CCc2ccccc2C1 (stereo not drawn),11,4,-7,-28,3638,10,4.5
Fc1ccc(Nc2ccc(-c3ccc(F)cc3)nn2)cc1,0,2,6,-84,4454,-11,1.1
O=C(O)c1ccc(CNS(=O)(=O)c2ccc3ccccc3c2)cc1,16,10,4,-15,4004,2,3.0
COc1ccc(-c2nc(CS(=O)CC(=O)NCc3ccc(F)cc3)c(C)o2)cc1 (stereo not drawn),11,4,3,-2,5628,6,1.0
O=C(COC(=O)c1ccccc1NS(=O)(=O)c1ccc(Cl)cc1)NCc1ccccc1,11,2,5,-19,1867,2,5.7
Cc1ccc2c(C)c(C(=O)N3CCCC(C(N)=O)C3)oc2c1C (stereo not drawn),11,12,-11,-29,5343,7,3.2

# Taken from the entries so far for reference:
SMILES,Mtb hypoxia inh,Mtb hypoxia inh growth,BJeLR viability,PrP 5UTR inh,Autofluor counter,ugtP null kill,Sa RN4220 lethal
CCOc1ncccc1C(=O)NNC(=O)c1cccc(S(=O)(=O)Nc2ccc(OC)cc2)c1,1,9,4,-13,5366,1,-1.4
CC(=O)NC(Cc1c[nH]c2ccccc12)C(=O)N1CCc2ccccc2C1 (stereo not drawn),11,4,-7,-28,3638,10,4.5
Fc1ccc(Nc2ccc(-c3ccc(F)cc3)nn2)cc1,0,2,6,-84,4454,-11,1.1
